Screening data deposited in PubChem BioAssay by National Center for Advancing Translational Sciences (NCATS).
PK Bst – pyruvate kinase (B. stearothermophilus) modulation. 51,000 compounds, 1.2% hits. Potency, µM. partly purified Bacillus stearothermophilus pyruvate kinase, luminescence ATP production; ribose 5-phosphate activator present at AC10. AID 361; in the data active means potency below about 11 µM; inconclusive means mostly about 12 µM to 25 µM; inactive means weaker than that;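 the screen sought inhibitors and activators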;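 further: potency means the concentration at half of the fitted maximal effect; scaled between full activation by ribose 5 phosphate and full inhibition by luteolin; about four in five hits inhibit and the cells do not say which; series up to 57 µM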
TsaE inh – inhibitors of E. coli YjeE (TsaE) | AID 605 | 71,000 compounds, 0.05% hits | purified YjeE, fluorescence polarisation of a bound ADP probe | P0AF67 | Potency, µM; active = well fitted falling curve; inconclusive = weaker or top-dose-only fall, or a rising curve; inactive = flat or poorly fitted curve;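 further: top concentration of the series not given in the record; excess ADP was the control for the full effect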
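Fluorescence polarization of a BODIPY Texas Red–ADP probe (2 uM) bound to purified YjeE (10 uM) was read after 15 min room-temperature incubation with compounds. Loss of polarization marks inhibitors; ADP serves as titrated control.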
* = called active by the depositor; i = inactive; ? = inconclusive; / = not tested or not shown. This is a subset (hit frequency here may not be typical).

SMILES | PK Bst | TsaE inh
O=C(c1ccc2c(c1)c(=O)oc1ccccc12)N1CCCCC1 | / | i
CCn1c(N)c(C(=O)NCc2cccnc2)sc1=S | >57 | i
COc1cc(NC(=O)c2cccc3c2C(=O)N(Cc2cccnc2)C3)cc(OC)c1OC | / | i
COc1ccc(C(O)c2nccn2Cc2ccccc2)cc1 (stereo not drawn) | >57 | i
CCOC(=O)c1ccc(NC(=O)c2ccc3c(c2)OCO3)cc1 | >57 | i
CCCC(=O)n1nc(-c2ccco2)nc1SCc1ccccc1 | / | i
O=C(NC1CCCC1)C(c1ccco1)N(Cc1ccccc1)C(=O)c1csnn1 (stereo not drawn) | >57 | i
CS(=O)(=O)N1CCCC(C(=O)NCCCN2CCC(Cc3ccccc3)CC2)C1 (stereo not drawn) | >57 | i
Oc1ccc(CN2CCCc3ccccc32)c2cccnc12 | >57 | i
CCOc1ccc(Nc2c3c(nc4ncnn24)CC(C)CC3)cc1 (stereo not drawn) | / | i
CC(C)Sc1nc(NCc2ccco2)c2c3c(sc2n1)COC(C)(C)C3 | >57 | i
COc1cccc(CNc2ccc(Br)cn2)c1O | i | /

Shown with two lines to a compound: entries from further up.
Values in the order: PK Bst, TsaE inh
CS(=O)(=O)N1CCCC(C(=O)NCCCN2CCC(Cc3ccccc3)CC2)C1 (stereo not drawn)
 : >57, i
CCCC(=O)n1nc(-c2ccco2)nc1SCc1ccccc1
 : /, i

Later entries:
SMILES | PK Bst | TsaE inh
O=C(CSc1nc2ccccc2s1)N1CCOCC1 | >57 | i
CC(=O)NCCNc1ncncc1-c1ccccc1C | / | i
CCOc1ccc(-n2c(C)nc3c(cnn3-c3ccc(Cl)cc3)c2=O)cc1 | >57 | i
COCCNC(=O)c1c[nH]c2ccc(S(=O)(=O)N3CCC4(CC3)OCCO4)cc2c1=O | >57 | i
CCOC(=O)c1nc(N)c(=O)n(-c2ccccc2)n1 | >57 | i
O=S(O)O.O=S(O)O.[Co].[NH2-].[NH2-].[NH2-].[NH2-] | / | i
CC1Cc2nc(SCC(=O)NCc3ccco3)n(Cc3ccccc3)c(=O)c2S1 (stereo not drawn) | / | i
O=C(CN1CCOCC1)OCCCC1CCCCC1 | >57 | i
CCOC(=O)C1C(c2ccc3c(c2)OCO3)NC(=O)NC1(O)C(F)(F)F (stereo not drawn) | >57 | i
Cn1c(SCC(=O)Nc2nccs2)nnc1-c1ccncc1 | >57 | i
CCOC(=O)c1c(C)n(C)c2ccc(OC)c(NC(=O)CN3CCCCC3)c12 | >25.6 | /
Cc1cnc(CNc2nc(-c3cccc(NS(C)(=O)=O)c3)nc3ccccc23)cn1 | / | i
CN(C)CCN(Cc1ccccc1)c1ccnc(N(C)C)c1C#N | / | i
O=S1(=O)NC(=NC2CCCCCC2)c2ccccc21 | >57 | i
COC(=O)N1CCC2(CC1)CN(C(=O)Nc1ccccc1)C2 | / | i
CCOc1cc(S(=O)(=O)NC2CCCC2)ccc1Cl | >57 | i
COc1cc(NC(=O)CSc2nnc3n2C(C)(C)Cc2ccccc2-3)cc(OC)c1 | >57 | i
O=C(c1ccco1)N(Cc1cccs1)C1CCS(=O)(=O)C1 (stereo not drawn) | >57 | i
O=C(OCN1C(=O)c2ccccc2C1=O)C1CCCCC1 | / | i
COc1ccc(NC(=O)CCCC2=NS(=O)(=O)c3ccccc3N2)cc1 | / | i
COc1ccc(NC(=O)Nc2ccc3nccnc3c2)cc1 | / | i
Cc1cc(C)nc(NS(=O)(=O)c2ccc(N)cc2)n1 | >25.6 | i
N#CCCn1c(-c2nonc2NC(=O)c2ccccc2Cl)nc2ccccc21 | >57 | i
Cc1ccc(C)c(Cn2nnc3c(=O)[nH]c(C(=O)NCc4ccco4)nc32)c1 | ? | i
CN1C(=O)c2oc3ccc(Br)cc3c(=O)c2C1c1ccncc1 (stereo not drawn) | >57 | i
COc1cc2c(cc1OC)C(COc1ccc3c(C)cc(=O)oc3c1)N(C(=O)c1ccco1)CC2 (stereo not drawn) | >57 | i
COc1cccc(-c2noc(-c3cccs3)n2)c1 | ? | i
CS(=O)(=O)Nc1ccc2c(c1)C(=O)OC2 | >57 | i
CN(C)c1cc(-c2cccc(NS(C)(=O)=O)c2)ncn1 | / | i
Cc1nc2cccc(C(=O)NC3CCCCC3)c2o1 | >57 | i
COc1cc(-c2nn3c(-c4cccc(C)c4)nnc3s2)cc(OC)c1OC | >57 | i
COc1ccc(-c2cn3cccnc3n2)cc1NC(=O)CC(C)C | >57 | i
COc1ccc(C2=Nn3c(nnc3-c3ccccc3OC)SC2)cc1OC | >57 | i
CCOC(=O)N1CCN(C(=O)Nc2ccc(Cl)cc2)CC1 | >57 | i
O=C(Oc1ccccc1)c1cccc(COC(=O)c2cnccn2)c1 | >57 | i
CCOc1ncccc1C(=O)OCc1cn2cc(Cl)ccc2n1 | >57 | i
Cc1cccc2cc(CN(Cc3ccccc3)C(=O)N(C)C)c(=O)[nH]c12 | >57 | i
CCOc1cc(-c2c(C#N)c(N)nc3c2CCCC3C)ccc1O (stereo not drawn) | >57 | i
COCCCn1c(SCC(N)=O)nnc1-c1ccccc1 | >57 | i
O=C1c2oc3ccccc3c(=O)c2C(c2cccc(O)c2)N1c1ccccn1 (stereo not drawn) | / | i
CCO/C(C)=N/n1c2nc3ccccc3nc2c2c(=O)n(CC(C)C)c(C)nc21 | >25.6 | /
CSC1=C(C#N)C(C)CC(=O)N1 (stereo not drawn) | >25.6 | /
COc1cc(C2C(C(C)=O)=C(O)C(=O)N2c2ccc(Br)cn2)ccc1O (stereo not drawn) | >25.6 | /
CCC(C)Sc1nc2c(cnn2-c2ccc(C)cc2)c(=O)[nH]1 (stereo not drawn) | / | i
Cc1cc(N2CCCC2=O)cc(C)c1S(=O)(=O)NCCOc1ccccc1 | >57 | i
COc1ccc(NC(=O)c2cc(-c3ccc(OC)c(OC)c3)on2)cc1OC | >57 | i
CC(C)C[C@@H](CC(=O)N[C@@H](CCC(=O)O)CC(=O)O)NC(=O)[C@@H]1CNCC[C@H]1NC(=O)C[C@@H](NC(=O)C[C@H](Cc1ccccc1)NC(=O)[C@@H]1CCCC[C@H]1N)C(C)C | / | i
Cc1ccc(N(CN2CCCC2=O)C(=O)c2ccc(C)c(C)c2)cc1 | >57 | i

Five consecutive compounds from above, quoted:
SMILES | PK Bst | TsaE inh
CCC(C)Sc1nc2c(cnn2-c2ccc(C)cc2)c(=O)[nH]1 (stereo not drawn) | / | i
Cc1cc(N2CCCC2=O)cc(C)c1S(=O)(=O)NCCOc1ccccc1 | >57 | i
COc1ccc(NC(=O)c2cc(-c3ccc(OC)c(OC)c3)on2)cc1OC | >57 | i
CC(C)C[C@@H](CC(=O)N[C@@H](CCC(=O)O)CC(=O)O)NC(=O)[C@@H]1CNCC[C@H]1NC(=O)C[C@@H](NC(=O)C[C@H](Cc1ccccc1)NC(=O)[C@@H]1CCCC[C@H]1N)C(C)C | / | i
Cc1ccc(N(CN2CCCC2=O)C(=O)c2ccc(C)c(C)c2)cc1 | >57 | i

Next section.
SMILES | PK Bst | TsaE inh
O=C(CSc1nnc(-c2ccco2)n1Cc1ccco1)NCc1cccs1 | >57 | i
CCOC(=O)CSC1=C(C#N)C(c2ccccc2Cl)C(C(=O)OC)C(=O)N1 (stereo not drawn) | / | i
COC(=O)c1ccc(NC(=O)c2ccco2)cc1 | / | i
CC(C)(C)NC(=O)C(c1ccc(I)cc1)N(CCN1CCOCC1)C(=O)CCCNC(=O)c1ccccc1 (stereo not drawn) | / | i
Cc1ccc(/C=N/c2sc3c(c2C#N)CCC3)s1 | 4.29* | i
O=C(N[C@@]1(C(=O)O)C[C@@H]1c1ccccc1)c1ccccc1 | / | i
CSC1=C(C#N)C2(CCCCC2)C(C(=O)Nc2ccccc2)=C(C)N1 | / | i
Nc1nonc1-c1noc(N2CCOCC2)n1 | >11.4 | /
Cc1ccc(S(=O)(=O)Nc2ccc3nc(N)sc3c2)cc1 | ? | i
CCN(CC)CCCN1C(=O)C(=O)/C(=C(/O)c2ccc3c(c2)OCO3)C1c1ccccn1 (stereo not drawn) | >57 | i
O=C(Nc1ccc(C(=O)N2CCOCC2)cc1)Nc1cccc(Cl)c1 | / | i
CCCCOC(=O)Nc1cc(OC)c(Cl)cc1OC | / | i
O=C(Cn1nc(-c2ccccc2F)ccc1=O)NCc1ccc2c(c1)OCO2 | >57 | i
COc1ccc(CNC(=O)c2ccc3c(c2)N(C)C(=O)CS3=O)cc1 (stereo not drawn) | / | i
O=C(CC(=O)NCc1cccnc1)NCc1cccnc1 | >57 | i
CC(C)C[C@H](NC(=O)OC(C)(C)C)C(=O)N1CCC(C(=O)N[C@@H](Cc2ccccc2)C(=O)O)CC1 | >57 | i
COc1cc(Br)cc(/C=N/c2ncn[nH]2)c1O | / | i
Nc1nc2n(c1C(=O)c1ccccc1)CCC2 | >57 | i
Cc1cnc(C(=O)N2CCN(S(=O)(=O)c3ccc4ccccc4c3)CC2)cn1 | / | i
O=C1CN(C(=O)COC(=O)COc2ccc3c(c2)CCC3)c2ccccc2N1 | >57 | i
Cc1cc(NC(=O)c2cc3ncc(Br)cn3n2)no1 | >57 | i
COc1ccccc1NC1=NCC(=O)N1Cc1ccccc1 | >57 | i
COc1ccc(-c2cc(C(F)(F)F)n3ncc(C(=O)NCC4CCCO4)c3n2)cc1 (stereo not drawn) | >57 | i
CCCC(c1nnnn1Cc1cccs1)N1CCN(c2ccc(OC)cc2)CC1 (stereo not drawn) | >57 | i
COc1cc2cc(CN(Cc3nnnn3Cc3ccccc3)CC3CCCO3)c(=O)[nH]c2cc1OC (stereo not drawn) | >57 | i
COCC(=O)N1CCC[C@@]2(CCN(c3ccccc3)C2)C1 | / | i
Cc1nn(-c2ccccc2)c(Cl)c1C(=O)N1CCN(c2ncnc3c2cnn3-c2ccccc2)CC1 | >57 | i
Cc1c(NC(=O)c2ccccc2F)c(=O)n(-c2ccccc2)n1C | >57 | i
O=S(=O)(c1ccc(S(=O)(=O)N2CCCC3(CCCCC3)C2)cc1)N1CCCCC1 | >57 | i
CCN(CC)C(=O)c1cn(C)c2ccc(S(=O)(=O)N(CC)CC)cc2c1=O | >57 | i
C1=C(CCNC2=NCCCCC2)CCCC1 | >57 | i
O=C(c1cnn2cccnc12)N1CCN(c2ccccc2)CC1 | i | i
O=C(Cn1nc(Cl)nc1Cl)c1cc2ccccc2oc1=O | >57 | i
O=C(O)COc1cccc(-c2ocnc2-c2nc(-c3ccccc3)c(-c3ccccc3)o2)c1 | / | i
COC(=O)N1CCC[C@@]2(CCN(c3ccccc3)C2)C1 | / | i
COc1ccc(Cc2nnc(SCC(=O)N3CCN(c4ccccc4)CC3)o2)cc1 | >57 | i
CC1(C)Cc2c(C#N)c(OCC(=O)c3ccc(Cl)cc3)nc(-c3ccoc3)c2CO1 | >25.6 | /
COCCn1c(SCc2nc3ccccc3s2)nc2ccccc21 | / | i
Cc1ccc(-n2c(=O)cc(N3CC(C)CC(C)C3)[nH]c2=O)cc1 (stereo not drawn) | >57 | i
CCO/C([O-])=N/c1c[n+](N2CCOCC2)no1 | >11.4 | i
CCOCCOC(=O)COc1ccc(N2C(=O)c3ccccc3C2=O)cc1 | / | i
CCOC(=O)c1ccc(N2C(=O)CC(SCC(N)C(=O)OCC)C2=O)cc1 (stereo not drawn) | >57 | i
Cc1nc(N)sc1-c1csc(N(C)c2ccc(O)cc2)n1 | i | i
Cc1cc(C)nc(NS(=O)(=O)c2ccc(NC(=O)CCC3COc4ccccc4O3)cc2)n1 (stereo not drawn) | >57 | i
O=S(=O)(NCc1csc(-c2cccnc2)n1)c1cccs1 | / | i
Cc1sc2ncnc(N3CCCCC3C)c2c1C (stereo not drawn) | >57 | i
COc1ccc(-c2nnc(SC(C)C(=O)Nc3ccc4c(c3)OCCO4)o2)cc1 (stereo not drawn) | / | i
Clc1ccc(CSCCc2ccncc2)cc1Cl | / | i
Cc1csc2c(C#N)c(=O)c3c(n12)CCC3 | >11.4 | i
N=c1n(CCN2CCOCC2)c2ccccc2n1CC(=O)c1ccc(Cl)c(Cl)c1 | 3.12* | i
Cc1cc(C)c2c(N)c(S(=O)(=O)c3ccccc3)sc2n1 | >57 | i
CC(=O)N1CCN(Cc2cc(=O)n3cc(Cl)c(C)c(Cl)c3n2)CC1 | >57 | i
CCCCCn1c(CN2CCN(C(=O)OCC)CC2)nc2c1c(=O)[nH]c(=O)n2C | >57 | i
CCOc1ccccc1N1C(=O)c2ccc(C(=O)O)cc2C1=O | / | i
c1cc(CNC2=NCCCCC2)ccn1 | >57 | i
O=C(c1cc(-c2ccccc2)on1)N1CCN(C(=O)c2ccco2)CC1 | >57 | i
COc1ccccc1-c1nc(N2CCOCC2)c2ccccc2n1 | / | i
CCOc1cccc(NC(=O)C2CC(=O)N(C)C(=Nc3ccccc3)S2)c1 (stereo not drawn) | >57 | i
CCOC(=O)CSC1=C(C#N)C(c2ccc(C)cc2)C(C(=O)OC)C(=O)N1 (stereo not drawn) | >25.6 | /
COc1ccc(CSc2n[nH]c(C)n2)cc1Br | / | i
CC(=O)c1c(N2CCN(C(=O)c3ccco3)CC2)nc(=S)n(-c2ccccc2)c1C | >57 | i

Profiles from above. Values in the order: PK Bst, TsaE inh
Shown for O=C(c1cc(-c2ccccc2)on1)N1CCN(C(=O)c2ccco2)CC1 : >57, i
Shown for Cc1csc2c(C#N)c(=O)c3c(n12)CCC3 : >11.4, i

Shown as a hit in PK Bst, among the entries above:
SMILES | PK Bst | TsaE inh
Cc1ccc(/C=N/c2sc3c(c2C#N)CCC3)s1 | 4.29* | i
N=c1n(CCN2CCOCC2)c2ccccc2n1CC(=O)c1ccc(Cl)c(Cl)c1 | 3.12* | i
